PrP UTR inh – inhibition of PrP 5' UTR reporter expression. cell-based PrP 5' UTR mRNA reporter, plate reader. inhibition, % (no concentration beside the values). 340,000 compounds, 0.35% hits. AID 488862, 2010;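 active means every replicate at 50% or more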;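 further: 0 = median of the neutral control wells; tested in H4 reporter cells; numbers are from one replicate; inactives centre near -14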
Autofluor counter – compound fluorescence in toxin protease inhibitor counterscreen | 360,000 compounds, 3.1% hits | compound autofluorescence counterscreen, microsphere flow cytometry; active compounds read high | fluorescence intensity (no concentration beside the values) | AID 624483;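 active means at least 3 SD above the mean of all compounds, about 16000 in these data; inconclusive means too few beads counted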;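 further: 100 nL of 1 mM stock went into each well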
Sa RN4220 lethal – growth inhibition of S. aureus RN4220, primary screen, OD600; 16 h; inhibition, % (test concentration not listed); 330,000 compounds, 0.33% hits; AID 1259311, 2017;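 active means z-score of -3 or lower and OD600 up to 0.18 on both plates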;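 further: plate controls were untreated cells for no effect and reference antibiotic for full effect; stock transfer was 100 nL into about 80 µL; one replicate is shown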
BJeLR lethal – MLPCN primary cell-based screen for lethality selective to Ras in HRASV12 cells; 300,000 compounds, 0.17% hits; BJeLR (HRASV12) viability, CellTiter-Glo ATP luminescence, 48 h; reference of the scale not given here; inhibition, % (concentration not given with the values);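 active means replicate mean above 50%; inconclusive means above 50% but judged a plate artefact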;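 further: 50 nL library stock added to about 25 µL; numbers are from one replicate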
ugtP null kill – growth inhibition of ugtP-null S. aureus, primary screen, RN4220 ugtP deletion, OD600; 16 h; some inactives read as strong as hits; growth inhibition, % (no concentration beside the values); 330,000 compounds, 0.54% hits;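 active means z-score under -3 and OD600 up to 0.15 on both plates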;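 further: plate controls were untreated wells for no effect and antibiotic for full effect; wells of about 80 µL received 100 nL stock; the first replicate is given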
Mtb hypoxia inh – PubChem AID 1159583; M. tuberculosis hypoxia-regulated fluorescent reporter, fluorescence; fluorescence inhibition, % (no concentration beside the values); 300,000 compounds, 0.1% hits;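 active means 35 to 45% if threefold the growth effect, above 45% if 1.5-fold the growth effect; inactive means the rest, general growth blockers included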;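 further: wells of about 50 µL received 100 nL stock; 0% = vehicle wells and 100% = reference inhibitor wells; whole bacteria with a GFP reporter of the hypoxia response; strong numbers were not always called active; many hits fall short of the cut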
Mtb hypoxia inh growth – further read-out of Mtb hypoxia inh, marked with its call; growth inhibition, %; measured here: M. tuberculosis growth (absorbance);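 0% = vehicle and 100% = reference antibiotic; read after six days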
* marks the source's active call; other numbers are inactive results.

The first 2 records as a preview:
Screening CCCCNC(=O)C(C)N(CCN(C)C)C(=O)CCCCCN1C(=O)NC(c2ccc(Cl)cc2)C(C(=O)OCc2ccccc2)=C1C (configuration not stated) returned PrP UTR inh -9, Autofluor counter 4317, Sa RN4220 lethal 1.4, ugtP null kill -8, Mtb hypoxia inh -1 and Mtb hypoxia inh growth 6.
For COc1ccccc1-n1cnnc1SCC(=O)NC1CCS(=O)(=O)C1 (configuration not stated) the results were PrP UTR inh -6, Autofluor counter 4206, Sa RN4220 lethal 2.0, BJeLR lethal -3, ugtP null kill 1, Mtb hypoxia inh 2 and Mtb hypoxia inh growth 4.

The listing (from the top)
Screening CCCCNC(=O)C(C)N(CCN(C)C)C(=O)CCCCCN1C(=O)NC(c2ccc(Cl)cc2)C(C(=O)OCc2ccccc2)=C1C (configuration not stated) returned PrP UTR inh -9, Autofluor counter 4317, Sa RN4220 lethal 1.4, ugtP null kill -8, Mtb hypoxia inh -1 and Mtb hypoxia inh growth 6.
For COc1ccccc1-n1cnnc1SCC(=O)NC1CCS(=O)(=O)C1 (configuration not stated) the results were PrP UTR inh -6, Autofluor counter 4206, Sa RN4220 lethal 2.0, BJeLR lethal -3, ugtP null kill 1, Mtb hypoxia inh 2 and Mtb hypoxia inh growth 4.
COCc1cc(=O)[nH]c(-c2ccccc2)n1 was read as PrP UTR inh -19, Autofluor counter 2520, Sa RN4220 lethal 2.9, BJeLR lethal -1, ugtP null kill 8, Mtb hypoxia inh 7 and Mtb hypoxia inh growth 0.
Screening c1ccc(-c2nc(N3CCCCC3)nc3ccccc23)cc1 returned PrP UTR inh -18, Autofluor counter 3647, Sa RN4220 lethal 9.6, BJeLR lethal -5, ugtP null kill 28, Mtb hypoxia inh 12 and Mtb hypoxia inh growth 12.
Cn1c(=O)c2c(nc(N3CCOCC3)n2CCSc2ncccn2)n(C)c1=O was read as PrP UTR inh -4, Autofluor counter 5847, Sa RN4220 lethal 2.9, BJeLR lethal -15, ugtP null kill 0, Mtb hypoxia inh -5 and Mtb hypoxia inh growth -2.
For Cc1c(NC(=O)CSc2nccn2C)c(=O)n(-c2ccccc2)n1C the results were PrP UTR inh -31, Autofluor counter 16417*, Sa RN4220 lethal 0.8, BJeLR lethal 10, ugtP null kill 5, Mtb hypoxia inh 3 and Mtb hypoxia inh growth 4.
For COc1cccc(/C=N\NC(=O)C2C(=O)NCC2c2ccccc2)c1O (configuration not stated) the results were PrP UTR inh -1, Autofluor counter 4760 and BJeLR lethal -4.
Screening Cc1ccccc1C(=O)NC(=S)Nc1ccc(S(=O)(=O)N2CCN(C)CC2)cc1 returned PrP UTR inh 9, Autofluor counter 2862, Sa RN4220 lethal 2.4, BJeLR lethal -6 and ugtP null kill 12.
Screening Cc1cc(C)n2nc(C(=O)Nc3ccc(S(=O)(=O)N4CCCC4)cc3)nc2n1 returned PrP UTR inh -9, Autofluor counter inconclusive, Sa RN4220 lethal -0.1, BJeLR lethal -2, ugtP null kill 0, Mtb hypoxia inh 10 and Mtb hypoxia inh growth -2.
For COCCCn1c(SCC(N)=O)nnc1-c1ccccc1 the results were PrP UTR inh -2, Autofluor counter 11131, Sa RN4220 lethal 4.5, BJeLR lethal 3, ugtP null kill 1, Mtb hypoxia inh 14 and Mtb hypoxia inh growth 8.
Cc1c(C(=O)NCC2CCCO2)oc2ccccc12 (configuration not stated) was read as PrP UTR inh -31, Autofluor counter 4187, Sa RN4220 lethal 0.9, ugtP null kill -1, Mtb hypoxia inh 4 and Mtb hypoxia inh growth 9.
O=C1c2oc3ccccc3c(=O)c2C(c2cccc(O)c2)N1c1ccccn1 (configuration not stated) was read as PrP UTR inh -5, Autofluor counter 4694, Sa RN4220 lethal 1.7, BJeLR lethal -5 and ugtP null kill -9.
Screening Cc1ccc(C(=O)N/C(=C\c2cn(S(=O)(=O)N(C)C)c3ccccc23)C(=O)N2CCCC2)cc1 returned PrP UTR inh -36, Autofluor counter 5563, Sa RN4220 lethal 2.5, BJeLR lethal 4, ugtP null kill 5, Mtb hypoxia inh 6 and Mtb hypoxia inh growth 5.
COc1ccc(S(=O)(=O)N2CCCCCC2)cc1C(=O)N(C)CCOc1ccccc1 was read as PrP UTR inh -7, Autofluor counter inconclusive, Sa RN4220 lethal 1.4, BJeLR lethal 2, ugtP null kill 6, Mtb hypoxia inh -8 and Mtb hypoxia inh growth -3.
Screening O=S(=O)(Cc1ccccc1)N1CCN(Cc2ccc(Br)cc2)CC1 returned PrP UTR inh -17, Autofluor counter 5206, Sa RN4220 lethal -3.7, BJeLR lethal 1, ugtP null kill 12, Mtb hypoxia inh 9 and Mtb hypoxia inh growth 8.
O=c1ccc2cc3ccoc3c(O)c2o1 was read as PrP UTR inh -22, Autofluor counter 5321, Sa RN4220 lethal 5.8 and ugtP null kill 9.
For COc1ccc(C(=O)NCC(C)C)c(OC)c1 the results were PrP UTR inh -15, Autofluor counter 3563, Sa RN4220 lethal -0.9, BJeLR lethal 5 and ugtP null kill 4.
COc1ccccc1/C=C1\SC(=S)N(CCC(=O)NC2=NCCS2)C1=O was read as PrP UTR inh -4, Autofluor counter 2247, Sa RN4220 lethal 3.7, BJeLR lethal 4, ugtP null kill 15, Mtb hypoxia inh 7 and Mtb hypoxia inh growth -8.
O=[N+]([O-])c1cccc(/C=N/NC2=NS(=O)(=O)c3ccccc32)c1 was read as PrP UTR inh -18, Autofluor counter 4840 and BJeLR lethal 2.
Screening CCCC(=O)N=C1SC2CS(=O)(=O)CC2N1c1ccc(-c2nc3ccc(C)cc3s2)cc1 (configuration not stated) returned PrP UTR inh -39, Autofluor counter 2173, Sa RN4220 lethal 1.4, BJeLR lethal -11, ugtP null kill -4, Mtb hypoxia inh 3 and Mtb hypoxia inh growth -3.
Screening COc1ccc(C2(C)NC(=O)N(CC(=O)NCc3ccccc3F)C2=O)cc1 (configuration not stated) returned PrP UTR inh -12, Autofluor counter 2959, Sa RN4220 lethal 3.1, BJeLR lethal -3, ugtP null kill 0, Mtb hypoxia inh 1 and Mtb hypoxia inh growth -3.
Screening CCN(CC)c1ccc(NC(=O)c2ccc3c(c2)OCO3)cc1 returned PrP UTR inh -48, Autofluor counter 3662, Sa RN4220 lethal -0.4, BJeLR lethal 17, ugtP null kill -3, Mtb hypoxia inh -3 and Mtb hypoxia inh growth 14.
`COc1cc(CC(=O)Nc2ccc(S(=O)(=O)NC3=NCCCCC3)cc2)cc(OC)c1OC` gave PrP UTR inh -32, Autofluor counter 4015, Sa RN4220 lethal 4.2, BJeLR lethal 16, ugtP null kill 15, Mtb hypoxia inh 3 and Mtb hypoxia inh growth 4.
CCOC(=O)N1CCN(C(=O)Nc2ccc(Cl)cc2)CC1 was read as PrP UTR inh -36, Autofluor counter 4208, Sa RN4220 lethal -1.3, BJeLR lethal 9 and ugtP null kill 1.
O=C(CN1CCN(S(=O)(=O)c2ccc(Cl)s2)CC1)NCc1ccc(Cl)cc1 was read as PrP UTR inh -16, Autofluor counter 19586*, Sa RN4220 lethal 1.8, BJeLR lethal 2, ugtP null kill -12, Mtb hypoxia inh -11 and Mtb hypoxia inh growth 5.
For COC(=O)/C=C1\S/C(=N/N=C/c2ccccc2)NC1=O the results were PrP UTR inh -22, Autofluor counter 8775 and BJeLR lethal 14.
Screening CCOC(=O)/C=C1\SCC(=O)N1CC(O)CN1C(=O)CS/C1=C/C(=O)OCC (configuration not stated) returned PrP UTR inh -6, Autofluor counter 3007, Sa RN4220 lethal 22, ugtP null kill 14, Mtb hypoxia inh 1 and Mtb hypoxia inh growth 1.
Screening CC(C)CN(C(=O)COc1ccc(C(C)(C)C)cc1)C1CCS(=O)(=O)C1 (configuration not stated) returned PrP UTR inh -8, Autofluor counter inconclusive, Sa RN4220 lethal 0.3, BJeLR lethal -2, ugtP null kill -1, Mtb hypoxia inh -3 and Mtb hypoxia inh growth 7.
Screening CCN(Cc1ccncc1)C(=O)c1ccccc1NS(=O)(=O)c1ccc(Br)cc1 returned PrP UTR inh -14, Autofluor counter 4483, Sa RN4220 lethal 9.4, BJeLR lethal -15, ugtP null kill 9, Mtb hypoxia inh 5 and Mtb hypoxia inh growth 4.
For CCNC(=O)CN1C(=O)NC2(CCCCCC2)C1=O the results were PrP UTR inh -36, Autofluor counter 4682, Sa RN4220 lethal 2.3, ugtP null kill 4, Mtb hypoxia inh 8 and Mtb hypoxia inh growth 6.

Arranged by molecular weight (falling): part of the list above
Screening CCCC(=O)N=C1SC2CS(=O)(=O)CC2N1c1ccc(-c2nc3ccc(C)cc3s2)cc1 (configuration not stated) returned PrP UTR inh -39, Autofluor counter 2173, Sa RN4220 lethal 1.4, BJeLR lethal -11, ugtP null kill -4, Mtb hypoxia inh 3 and Mtb hypoxia inh growth -3.
COc1ccccc1/C=C1\SC(=S)N(CCC(=O)NC2=NCCS2)C1=O was read as PrP UTR inh -4, Autofluor counter 2247, Sa RN4220 lethal 3.7, BJeLR lethal 4, ugtP null kill 15, Mtb hypoxia inh 7 and Mtb hypoxia inh growth -8.
CCOC(=O)N1CCN(C(=O)Nc2ccc(Cl)cc2)CC1 was read as PrP UTR inh -36, Autofluor counter 4208, Sa RN4220 lethal -1.3, BJeLR lethal 9 and ugtP null kill 1.

Carrying on:
For CC(C)OC(=O)C1=C(N)N2C(=O)CSC2=C(C(=O)OC(C)C)C1 the results were PrP UTR inh -14, Autofluor counter 3301, Sa RN4220 lethal 1.7, BJeLR lethal 6 and ugtP null kill -1.
`COc1cc(NC(=O)c2ccccc2C)c(OC)cc1NC(=O)CN1CCOCC1` gave PrP UTR inh -1, Autofluor counter 4007, Sa RN4220 lethal 5.4, BJeLR lethal 0, ugtP null kill 5, Mtb hypoxia inh 8 and Mtb hypoxia inh growth 4.
`Cc1ccc(C(=O)NNS(=O)(=O)c2ccc(F)cc2)cc1` gave PrP UTR inh -25, Autofluor counter 3834 and BJeLR lethal -6.
`Cc1cccc(N2C(=O)CN(Cc3sccc3C)C2=S)c1` gave PrP UTR inh 1, Autofluor counter 2139, Sa RN4220 lethal 9.2, BJeLR lethal -1, ugtP null kill 0, Mtb hypoxia inh 2 and Mtb hypoxia inh growth 7.
Screening O=C(CCN1CCOCC1)NNC(=S)NC(=O)c1ccccc1 returned PrP UTR inh -12, Autofluor counter 2820, Sa RN4220 lethal 6.4, BJeLR lethal -5, ugtP null kill 2, Mtb hypoxia inh -4 and Mtb hypoxia inh growth -3.
`CCC(CC)C(=O)Nc1ccc(S(=O)(=O)Nc2nccs2)cc1` gave PrP UTR inh -34, Autofluor counter 3973, Sa RN4220 lethal 2.1, BJeLR lethal -5, ugtP null kill -3, Mtb hypoxia inh -6 and Mtb hypoxia inh growth 9.
COc1ccccc1N(C)S(=O)(=O)c1ccc(C(=O)Nc2ccc(C(N)=O)cc2)cc1 was read as PrP UTR inh 7, Autofluor counter inconclusive, Sa RN4220 lethal 5.1, ugtP null kill -1, Mtb hypoxia inh 9 and Mtb hypoxia inh growth 1.
N#Cc1c(NC(=O)c2cccnc2)sc2c1CCC2 was read as PrP UTR inh -31, Autofluor counter 4665, Sa RN4220 lethal 3.5, BJeLR lethal -2 and ugtP null kill -3.
Cc1ccc2nc(-c3cccc(Br)c3)cc(C(=O)NC3CC3)c2c1 was read as PrP UTR inh -25, Autofluor counter 4990, Sa RN4220 lethal 3.6, BJeLR lethal -2, ugtP null kill 4, Mtb hypoxia inh 4 and Mtb hypoxia inh growth 5.
NC(=O)Nc1ccc(Cl)cc1 was read as PrP UTR inh -15, Autofluor counter 4769, Sa RN4220 lethal 8.1, BJeLR lethal 19, ugtP null kill -4, Mtb hypoxia inh -12 and Mtb hypoxia inh growth 7.
`CCCCCc1cc(=O)[nH]c(=S)[nH]1` gave PrP UTR inh -12, Autofluor counter 4072, Sa RN4220 lethal 1.9, BJeLR lethal -2, ugtP null kill 8, Mtb hypoxia inh 11 and Mtb hypoxia inh growth 6.
`CC(=NNC(=O)c1nn(C)cc1Br)c1ccc(NC(=O)c2ccncc2)cc1` gave Sa RN4220 lethal -4.8, ugtP null kill -1, Mtb hypoxia inh -12 and Mtb hypoxia inh growth -8.
Screening Cc1cccc(NC(=O)CN2C(=O)N/C(=C\c3ccccc3OCc3ccc(C(=O)O)cc3)C2=O)c1 returned PrP UTR inh -19, Autofluor counter 3249, Sa RN4220 lethal 0.3, BJeLR lethal 1, ugtP null kill 0, Mtb hypoxia inh 16 and Mtb hypoxia inh growth 0.
O=C(Oc1ccccc1)c1cccc(COC(=O)c2cnccn2)c1 was read as PrP UTR inh -7, Autofluor counter 7656, Sa RN4220 lethal 1.8, BJeLR lethal 12, ugtP null kill -7, Mtb hypoxia inh 0 and Mtb hypoxia inh growth 4.

Bioassay records as filed in PubChem.
